# RGS16-Gao – regulators of human RGS16-Galphao interaction; O15492+P09471; bead-based flow cytometry RGS16-Galphao binding, fluorescence; actives lie on both sides; binding response (% of control), % at 10 µM; actives 0.38% (n = 220,000); AID 1441;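 active means below 25% or above 175%, edge rows of some plates excepted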;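 further: Galphao activated by GDP with aluminum fluoride before binding; 100% = wells without compound and 0% = beads without RGS; some results beyond the cut were filed as inactive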
# Target sequence (O15492 whole entry, looked up): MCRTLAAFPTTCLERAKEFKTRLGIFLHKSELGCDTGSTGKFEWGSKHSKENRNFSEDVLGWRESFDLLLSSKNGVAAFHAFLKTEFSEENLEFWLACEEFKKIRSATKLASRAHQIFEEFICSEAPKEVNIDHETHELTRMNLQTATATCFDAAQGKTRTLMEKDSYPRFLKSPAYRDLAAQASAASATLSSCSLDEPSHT
# Target sequence (P09471 whole entry, looked up): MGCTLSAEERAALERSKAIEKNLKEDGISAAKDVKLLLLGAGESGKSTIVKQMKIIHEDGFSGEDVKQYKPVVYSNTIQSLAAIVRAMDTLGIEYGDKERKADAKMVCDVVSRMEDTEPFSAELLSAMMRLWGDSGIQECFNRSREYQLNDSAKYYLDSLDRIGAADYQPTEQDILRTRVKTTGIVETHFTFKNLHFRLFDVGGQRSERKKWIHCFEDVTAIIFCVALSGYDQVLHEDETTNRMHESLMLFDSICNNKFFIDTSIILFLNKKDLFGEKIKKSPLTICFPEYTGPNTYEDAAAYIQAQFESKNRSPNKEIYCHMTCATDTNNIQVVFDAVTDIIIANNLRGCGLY
# HSV replic up – HSV replication enhancement | HSV replication augmentation in cells, fold increase | maximum fold increase | actives 0.005% (n = 220,000);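 active means peak rise of 1.5-fold or more in the series; tested in PC3 cells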;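 further: first round at 10 µM; read as green reporter fluorescence; hits show the peak of a series up to 25 µM; 1 = signal of infected wells without compound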
# PKD1 kinase inh – PKD1 (human) kinase inhibition; Q15139; PKD1 kinase fluorescence polarization assay; inhibition, %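 (about 10 µM by stock and volumes)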; actives 0.056% (n = 200,000);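 active means inhibition of 50% or more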;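 further: controls were vehicle for no effect and a reference inhibitor for full effect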
# Insulin prom inh – TRM-6 insulin promoter activity inhibition | inhibition, % at 2 µM | actives 0.9% (n = 130,000) | TRM-6 cells (human fetal islet line), insulin promoter-eGFP reporter, imaging; reporter expression induced with tamoxifen;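 active means inhibition above the mean plus 3 SD, with well images judged a real hit on visual review, cut at about 60% in these data, passing the limit was not always enough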
# GALR2 agonist – GALR2 (human) receptor agonism | O43603 | actives 0.48% (n = 140,000) | activation, %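 (tested at 5 µM)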 | GALR2-expressing cells, agonist activation read-out | AID 803;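 active means above mean plus 3 SD of all compounds, about 5% in these data, not always enough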;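 further: 0% = vehicle buffer wells and 100% = reference agonist at full effect; tested in CHO reporter cells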
# Target sequence (O43603 whole entry, looked up): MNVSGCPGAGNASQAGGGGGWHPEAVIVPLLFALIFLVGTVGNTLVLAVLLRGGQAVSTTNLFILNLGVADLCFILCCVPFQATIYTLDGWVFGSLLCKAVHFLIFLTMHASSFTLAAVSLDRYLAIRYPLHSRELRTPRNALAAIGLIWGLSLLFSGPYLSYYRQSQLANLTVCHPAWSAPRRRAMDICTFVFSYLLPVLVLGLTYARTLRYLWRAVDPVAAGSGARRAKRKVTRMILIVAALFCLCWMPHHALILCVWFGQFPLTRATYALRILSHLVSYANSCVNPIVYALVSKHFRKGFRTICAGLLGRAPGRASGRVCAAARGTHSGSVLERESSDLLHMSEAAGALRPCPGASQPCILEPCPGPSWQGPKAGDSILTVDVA
# Insulin prom inh cell count – second read-out of Insulin prom inh, no call of its own (marks repeat the call); normalized cell count, %; measured here: cell count, toxicity; reference of the scale not given here;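 cells exposed to compound for 48 h; stained nuclei by imaging scaled within each plate; lower means fewer cells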
# HSV replic up primary fold – second read-out of HSV replic up, no call of its own (marks repeat the call); fold increase; compound at 10 µM; measured here: primary screen fold increase 10 uM; tested in PC3 cells;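 GFP signal in the first replicate; 1 = infected wells without compound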
# An asterisk follows results filed as active; i = inactive; nt = no result given; & = joins results of further samples.
Compound	HSV replic up primary fold	Insulin prom inh	HSV replic up	PKD1 kinase inh	GALR2 agonist	RGS16-Gao	Insulin prom inh cell count
CCOC(=O)c1c(C)n(OC)c2ccc3c(no[n+]3[O-])c12	0.7	53	i	-9	-1.2	105	72
COC(=O)N/N=C/c1c(C)c(C(=O)c2ccc(F)cc2)n2ccccc12	1.1	-27	i	2	0.1	108	125
C#CCOCCOCCOCCNc1nc(N2CCOCC2)nc(N2CCN(C(=O)[C@H](CCCCN)n3cc([C@@H](N)C(C)CC)nn3)CC2)n1 (some centres undefined)	1	nt	i	-4	nt	105	nt
O=C1NC(=S)N/C1=C/c1cccnc1	0.96	nt	i	nt	nt	113	nt
COc1ccc(C(=O)/C=C2/c3ccccc3CC(C)(C)N2C)cc1	nt	12	nt	-3	-3.7	113	109
COc1cc(C)ccc1OCCCOc1c(Cl)cccc1Cl	0.95	-19	i	7	1.2	103	124
CCc1nnc(NC(=O)CSc2ncc(-c3ccccc3)n2CC)s1	0.78	15	i	-3	-1.5	106	103
CCN(CC)S(=O)(=O)c1cccc(-c2nnc(SCC(=O)N3CCC(C(=O)O)CC3)n2N)c1	1.1	6	i	-3	nt	99	102
Cc1ccc(S(=O)(=O)CC(C)(O)CS(=O)(=O)c2ccc(C)cc2)cc1	1.1	nt	i	nt	nt	86	nt
O=C(Cn1c2c(c(-c3ccccc3)cc1=O)CCCC2)N1CCCCCC1	0.97	55	i	-8	-0.7	108	95
COc1ccc(C2Nc3ccccc3C(=O)N2NS(=O)(=O)c2ccccc2)cc1OC (centres undefined)	0.92	39	i	-1	nt	100	63
CN(C)CCOC(=O)C12CC3CC(C1)CC(C(=O)OCCN(C)C)(C3)C2	1.2	nt	i	nt	nt	102	nt
O=C(Nc1ccc(O)cc1C(=O)O)c1cccc(Br)c1	1.1	nt	i	-11	-1.2	103	nt
Clc1ccc(C2=Nn3c(nnc3-c3n[nH]c4c3CCC4)SC2)cc1	0.8	-108	i	-1	1.7	99	7
OC(CC#CCN1CCCC1)(c1ccccc1)c1ccccc1	0.65	nt	i	nt	nt	96	nt
COCCn1c(SCC(=O)N2CCCC2)nnc1-c1ccoc1C	1	9	i	-21	0.8	93	100
CCOC(=O)N1CCN(S(=O)(=O)c2cccc3nsnc23)CC1	0.81	-35	i	-17	-1.8	41	95
CCC(=O)N1CCN(c2ccc(NC(=O)c3ccc(N4CCCC4)c([N+](=O)[O-])c3)cc2)CC1	0.83	nt	i	-1	-1.0	91	nt
Cc1ccc(S(=O)(=O)NC(=O)Nc2cccc(C)n2)cc1	1	nt	i	nt	nt	100	nt
CCCCCCOC(=O)/C=C/c1c(C)[nH]c(=O)[nH]c1=O	0.81	-30	i	-1	-1.1	82	97
O=C(NNC(=O)c1nn(-c2ccc(F)cc2)ccc1=O)Nc1cccc(Cl)c1	0.92	nt	i	nt	nt	105	nt
Cc1nnc(Sc2cc(C(=O)NCCCOC(C)C)c3ccccc3n2)s1	0.98	nt	i	nt	nt	102	nt
Cc1[nH][nH]c(=O)c1C(c1ccc([N+](=O)[O-])cc1)c1c(C)[nH][nH]c1=O	0.99	nt	i	nt	nt	99	nt
COCCn1c(=NC(=O)C2COc3ccccc3O2)sc2cc(S(N)(=O)=O)ccc21 (centres undefined)	0.85	-23	i	4	-0.5	113	121
Cn1c(C(O)c2ccc3c(c2)OCO3)nc2ccccc21 (centres undefined)	1.1	77*	i	-9	-1.1	98	70*
O=C(O)CCCCCCCCCCCc1ccccc1	0.85	20	i	4	nt	103	65
COC(=O)CCCC[C@@H]1SC[C@@H](NC(=O)OC)[C@@H]1NC(=O)OC	0.81	-170	i	3	-0.5	95	105
COC(=O)c1c(C(=O)OC)c2oc3ccccc3n2c1Cl	0.87	-3	i	-3	1.6	105	109
Cc1ccc(-c2cc3nc(-c4ccc(Br)cc4)cc(N)n3n2)cc1	1	-48	i	2	1.8	99	101
COc1ccc(/C=N\NC(=O)c2ccc(=O)[nH]n2)cc1O	1	nt	i	-8	-1.2	127	nt
C=CCC(Nc1ccccc1)c1cccc(OC)c1OC (centres undefined)	0.99	nt	i	nt	nt	99	nt
Clc1ccc(-c2nnc(N3CCCC3)nn2)cc1	0.68	42	i	-23	-0.4	108	79
Cc1cc2c3c(c1)C1(C(=O)N3C(C)(C)CC2C)C(C#N)=C(N)OC2=C1C(=O)CC(C)(C)C2 (centres undefined)	0.9	-6	i	-9	-0.6	103	115
COc1cc(C)ccc1N(CCCN1C(=O)c2cccc3cccc(c23)C1=O)C(=O)c1cccs1	0.9	nt	i	4	-0.4	99	nt
O=S(=O)(O)c1nc2ccccc2[nH]1	0.94	nt	i	nt	nt	107	nt
CCC(Oc1ccccc1)C(=O)NC1C(=O)N2C1SC(C)(C)C2C(=O)O (centres undefined)	1.1	nt	i	7	nt	102	nt
CCc1ccc(C2(C)SC(NC(C)=O)=NN2C(C)=O)cc1 (centres undefined)	0.91	14	i	-13	-2.9	104	95
O=C(O)C1CCCCC1C(=O)NCc1ccccn1 (centres undefined)	0.83	nt	i	6	nt	103	nt
CCCCNC(=O)N(c1c(N)n(Cc2ccccc2)c(=O)[nH]c1=O)C1CCCC1	0.98	-73	i	8	nt	100	97
Clc1ccc(-c2nnc(SCc3nc4ccccc4[nH]3)o2)c(Cl)c1	0.77	62	i	-13	-0.9	101	146
O=C(O)CC1COc2ccccc2N1C(=O)c1ccccc1Cl (centres undefined)	1.1	nt	i	3	nt	97	nt
Cc1[nH]n2c(=O)c3c(nc2c1-c1ccccc1)CCCC3	0.95	nt	i	7	0.1	101	nt
COc1ccc(-c2nnc(-c3ccc(Br)o3)o2)cc1OC	0.97	15	i	-10	-2.4	99	226
NC(=S)N/N=C/c1ccccc1	1.4	nt	i	-2	-0.9	103	nt
Cc1cccc(N2CCN(C(=O)Cn3cccc3)CC2)c1C	1	nt	i	-4	-1.6	110	nt
CC1Cc2cc(/C=C3/SC(N4CCC(C(N)=O)CC4)=NC3=O)ccc2O1 (centres undefined)	0.76	nt	i	nt	nt	95	nt
COc1cc(NS(=O)(=O)c2ccc(NC(=S)NC(=O)c3sc4cc(F)ccc4c3Cl)cc2)nc(OC)n1	1.1	63	i	4	-0.9	95	148
COCCOC(=O)C1=C(C)NC(=O)NC1c1cn(-c2ccccc2)nc1-c1cccs1 (centres undefined)	0.93	14	i	13	-1.4	85	86

# In a second layout: results already given
# Each structure is followed by: HSV replic up primary fold, Insulin prom inh, HSV replic up, PKD1 kinase inh, GALR2 agonist, RGS16-Gao, Insulin prom inh cell count
Cc1cc2c3c(c1)C1(C(=O)N3C(C)(C)CC2C)C(C#N)=C(N)OC2=C1C(=O)CC(C)(C)C2 (centres undefined)
    0.9, -6, i, -9, -0.6, 103, 115
COc1cc(C)ccc1N(CCCN1C(=O)c2cccc3cccc(c23)C1=O)C(=O)c1cccs1
    0.9, nt, i, 4, -0.4, 99, nt
O=S(=O)(O)c1nc2ccccc2[nH]1
    0.94, nt, i, nt, nt, 107, nt
CCC(Oc1ccccc1)C(=O)NC1C(=O)N2C1SC(C)(C)C2C(=O)O (centres undefined)
    1.1, nt, i, 7, nt, 102, nt
CCc1ccc(C2(C)SC(NC(C)=O)=NN2C(C)=O)cc1 (centres undefined)
    0.91, 14, i, -13, -2.9, 104, 95
O=C(O)C1CCCCC1C(=O)NCc1ccccn1 (centres undefined)
    0.83, nt, i, 6, nt, 103, nt
CCCCNC(=O)N(c1c(N)n(Cc2ccccc2)c(=O)[nH]c1=O)C1CCCC1
    0.98, -73, i, 8, nt, 100, 97
Clc1ccc(-c2nnc(SCc3nc4ccccc4[nH]3)o2)c(Cl)c1
    0.77, 62, i, -13, -0.9, 101, 146
O=C(O)CC1COc2ccccc2N1C(=O)c1ccccc1Cl (centres undefined)
    1.1, nt, i, 3, nt, 97, nt
Cc1[nH]n2c(=O)c3c(nc2c1-c1ccccc1)CCCC3
    0.95, nt, i, 7, 0.1, 101, nt
COc1ccc(-c2nnc(-c3ccc(Br)o3)o2)cc1OC
    0.97, 15, i, -10, -2.4, 99, 226
NC(=S)N/N=C/c1ccccc1
    1.4, nt, i, -2, -0.9, 103, nt
Cc1cccc(N2CCN(C(=O)Cn3cccc3)CC2)c1C
    1, nt, i, -4, -1.6, 110, nt
CC1Cc2cc(/C=C3/SC(N4CCC(C(N)=O)CC4)=NC3=O)ccc2O1 (centres undefined)
    0.76, nt, i, nt, nt, 95, nt
COc1cc(NS(=O)(=O)c2ccc(NC(=S)NC(=O)c3sc4cc(F)ccc4c3Cl)cc2)nc(OC)n1
    1.1, 63, i, 4, -0.9, 95, 148

# More structures:
Compound	HSV replic up primary fold	Insulin prom inh	HSV replic up	PKD1 kinase inh	GALR2 agonist	RGS16-Gao	Insulin prom inh cell count
CCCCC#Cc1cncc(C(=O)NN)c1	3.1	nt	i	nt	nt	97	nt
CCOC(=O)C1CCN(C=Nc2cc(C)on2)CC1	1.1	nt	i	7	-0.1	97	nt
O=C(CSc1nnc(-c2cccs2)n1-c1ccccc1)Nc1ccccc1	0.81	nt	i	-4	-0.1	102	nt
Cc1cccc(C(=O)N2CCCN(C(=O)c3cccc(C)c3)CC2)c1	0.86	-3	i	-2	-0.6	290	110
Cc1cccc(OCc2nnc(SCC(=O)N3CCCC3)n2C)c1	0.81	26	i	-13	-1.8	98	75
CN1CCN(c2ccc(NC(=O)c3cccs3)cc2)CC1	0.92	50	i	-3	nt	100	55
O=C(Oc1c(-c2ccccc2)c(=O)n2c3c(cccc13)CC2)c1ccccc1	0.86	nt	i	nt	nt	102	nt
Cc1ccc(SCCC(=O)NC(C)C)cc1	0.86	2	i	-8	-1.5	108	115
COc1ccccc1Nc1nc(NCc2ccco2)nc(N)c1[N+](=O)[O-]	0.69	nt	i	nt	nt	104	nt
Oc1ccccc1C1=NOC(O)(C(F)F)C1 (centres undefined)	0.93	22	i	-5	-3.4	100	90
O=S(=O)(NCc1ccccc1)c1cnc[nH]1	0.89	-52	i	8	-1.6	99	117
Nc1c(Cl)ncnc1NCCO	0.85&0.92	nt	i	-2	nt	101&112	nt
COc1ccc(-n2c(SCC(=O)C(C)(C)C)nc3ccsc3c2=O)cc1	0.87	68	i	2	nt	103	86
Cc1ccc(CSc2ncnc3c2cnn3-c2ccc(C)cc2)cc1	1	-3	i	14	-2.2	49	27
O=C1CC(c2ccco2)Cc2c1cnn2-c1nc2ccccc2s1 (centres undefined)	0.92	50	i	-19	-1.1	130	84
O=[N+]([O-])c1ccc(-n2cnc3ccccc32)c([N+](=O)[O-])c1	0.9	nt	i	2	nt	97	nt
CC1Cc2cccc3c(O)c(C(=O)c4nn[nH]n4)c(=O)n1c23 (centres undefined)	0.84	33	i	4	0.7	93	132
Cc1[nH]n2c(=O)c3c(nc2c1-c1ccc(Cl)cc1)CCC3	0.97	-65	i	-7	-1.4	99	70
Cn1c(=O)[nH]c(=O)c2c1nc1n2CCN1Cc1ccccc1	1.1	30	i	1	-0.2	92	68
O=S(=O)(NCC(c1cccnc1)N1CCN(c2ccccc2)CC1)c1cccs1 (centres undefined)	1.1	-81	i	2	-1.0	96	95
N#Cc1c[nH]n2c(=O)cc(Cc3ccccc3)nc12	0.85	44	i	-2	1.8	87	89
O=C(O)c1cc2ccccc2c(=O)s1	0.97	11	i	-7	-1.1	96	104
Cc1onc(-c2c(Cl)cccc2Cl)c1C(=O)c1ccccc1	1.2	nt	i	nt	nt	104	nt
CCOc1ccccc1NC(=O)CNC(=O)Cc1ccccc1	0.92	nt	i	-8	nt	104	nt
